# YopH inh: blocks Yersinia enterocolitica YopH tyrosine phosphatase; inhibition, %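 (about 10 µM by stock and volumes)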; hit rate 0.16% among 140,000; fluorescence Ex485/Em525;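 active = inhibition of 50% or more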;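 note: controls were vehicle for no effect and minimum signal wells for full effect; inactives centre near -20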
# Arbovirus anti: blocks arbovirus infection | arbovirus infection cell-based antiviral screen | inhibition, % at 10 µM | hit rate 0.37% among 200,000 | AID 1251;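 active = inhibition from about 30%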;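 note: bluetongue infection of BSR cells; cell survival read as ATP light after 72 h; 0% = infected wells without compound and 100% = uninfected wells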
# Mtb growth: M. tuberculosis H37Rv growth inhibitors, H37Rv strain (AID 1626) | M. tuberculosis H37Rv growth inhibition; higher % means a stronger effect | one-dose inhibition, % at 10 µM; IC50 in µM for titrated hits | hit rate 0.95% among 220,000;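 active = confirmed in a dose series; inconclusive = inhibition above 80% but not taken into the dose series; inactive = below 80% or under 30% at every dose of the series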;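 note: bacteria incubated seven days before Alamar blue readout; 0% = bacteria only wells and 100% = bacteria with antibiotic wells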
# RecA intein inh: blocks M. tuberculosis RecA intein splicing. P9WHJ3. AID 2221. cell-free RecA intein splicing, fluorescence. hit rate 0.75% among 290,000. inhibition, %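 (about 9 µM by stock and volumes)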; in the data active = inhibition above about 30%; inconclusive = no clear call, values can overlap the other calls;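 note: 0% = vehicle wells and 100% = reference inhibitor control wells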
# Target sequence (P9WHJ3 whole entry, looked up): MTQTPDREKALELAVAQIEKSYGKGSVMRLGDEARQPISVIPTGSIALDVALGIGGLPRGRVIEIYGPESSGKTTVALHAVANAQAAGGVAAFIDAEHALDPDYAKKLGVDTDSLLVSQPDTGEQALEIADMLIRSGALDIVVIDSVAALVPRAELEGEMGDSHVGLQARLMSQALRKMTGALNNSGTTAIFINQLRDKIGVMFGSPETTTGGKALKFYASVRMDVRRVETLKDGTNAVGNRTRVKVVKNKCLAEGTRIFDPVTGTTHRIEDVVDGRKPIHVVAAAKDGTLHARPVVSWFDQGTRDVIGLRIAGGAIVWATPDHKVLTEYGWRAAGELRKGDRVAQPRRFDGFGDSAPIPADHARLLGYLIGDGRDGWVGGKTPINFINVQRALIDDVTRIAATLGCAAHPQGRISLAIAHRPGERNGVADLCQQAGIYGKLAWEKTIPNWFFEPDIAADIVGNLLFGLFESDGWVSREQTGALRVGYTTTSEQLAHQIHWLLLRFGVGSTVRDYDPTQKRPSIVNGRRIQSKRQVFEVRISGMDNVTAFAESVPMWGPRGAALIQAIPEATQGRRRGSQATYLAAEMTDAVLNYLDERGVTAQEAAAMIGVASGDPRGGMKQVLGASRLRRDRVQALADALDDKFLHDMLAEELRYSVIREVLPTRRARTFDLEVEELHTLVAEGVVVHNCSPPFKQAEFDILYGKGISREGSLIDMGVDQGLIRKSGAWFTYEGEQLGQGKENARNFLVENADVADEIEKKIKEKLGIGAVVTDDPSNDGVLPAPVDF
# Mtb betalactam: beta-lactam sensitization of Mtb H37Rv. M. tuberculosis H37Rv growth with meropenem, percent inhibition; hits of this screen are not shown here. inhibition, % at 25 µM. hit rate 0.27% among 330,000. AID 434955;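 active = about 74% or more and at least 40 points above the plate without the antibiotic, then above 30% in a dose series; inconclusive = first-round hits that could not be retested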;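 note: growth measured after seven days incubation then overnight dye step; 0% = bacteria only wells and 100% = bacteria with antibiotic; twin plates without the antibiotic show which effects depend on it; some results filed as inactive read as strong as hits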
# Arbovirus anti repeat: second read-out of Arbovirus anti, no call of its own (marks repeat the call); inhibition, %; measured here: 10K subset replicate screen; many hits read low in the repeat;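 first of two repeat runs on a subset; 0% = infected and 100% = uninfected wells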
# Starred values were filed as active, the others as inactive; ? = inconclusive; · = no result given. Only part of the results is shown, so the mix of outcomes need not match the whole.
SMILES,YopH inh,Arbovirus anti,Mtb growth,RecA intein inh,Mtb betalactam,others
Cc1c(C(=O)N2CCCCC2)c(S(=O)(=O)N2c3ccccc3CC2C)c(C)n1C (configuration not stated),·,·,·,4.3,-9,
CCc1nc(C)ccc1OCC(=O)O,-47,7,-4%,1.4,-1,
O=S(=O)(c1ccc2ccccc2c1)N1CCCCCC1,·,6,0%,·,-8,
COC(=O)c1onc(-c2c(OC)cc(OC)cc2OC)c1C(=O)OC,10,3,-4%,0.4,-5,
O=C(NC1CC1)c1cc(-c2ccccn2)nc2ccccc12,-6,2,-10%,-2.9,-8,
CCOC(=O)c1ccc(Nc2cnc3ccccc3n2)cc1,·,-2,13%,-10,9,
CCOC(=O)CN1c2ccccc2NC(=O)CC1C (configuration not stated),-18,6,-4%,0.2,-9,Arbovirus anti repeat=5
O=C1c2cccc(OCC(=O)N3CCCc4ccccc43)c2CCN1Cc1ccc(Br)cc1,-17,-11,15%,-2.5,88,
CCCN1CCN(CCCNC(=O)C2CCCN(c3nc4ccc(OCC)cc4s3)C2)CC1 (configuration not stated),-14,-6,2%,-0.2,-4,
Cc1nn2c(C(F)(F)F)cc(-c3ccc(Cl)cc3)nc2c1C(=O)N1CCOCC1,-43,1,5%,-2.4,5,
Cc1ccccc1C(=O)NNC(=O)C(=O)N1CCCCC1,-17,-7,2%,-3.8,-6,
CS(=O)(=O)N(Cc1ccccc1F)c1ccccc1,-2,1,-4%,-1.5,-3,

# The list goes on (2 carried over from the part before).
SMILES,YopH inh,Arbovirus anti,Mtb growth,RecA intein inh,Mtb betalactam,others
Cc1ccccc1C(=O)NNC(=O)C(=O)N1CCCCC1,-17,-7,2%,-3.8,-6,
CS(=O)(=O)N(Cc1ccccc1F)c1ccccc1,-2,1,-4%,-1.5,-3,
CCN(CC)c1ccc(C=Nc2ccc(C#N)cc2)c(O)c1,30,-5,4%,-1.9,27,Arbovirus anti repeat=-1
CCOC(=O)Cc1csc(NC(=S)NC(=O)c2ccc(C)cc2)n1,1,-2,10%,1.2,8,
COc1ccc(Cc2nnc(Nc3ccc4c(c3)OCCO4)[nH]c2=O)cc1,·,-10,2%,0.1,-9,
O=C1OCC2=C1C(c1ccc3c(c1)OCO3)Sc1ccccc1N2 (configuration not stated),-14,3,-5%,-7.6,1,
C=CCn1c(SCc2c(F)c(F)c(F)c(F)c2F)nc(O)cc1=O,-55,11,-6%,2.5,1,
O=C(CSc1nc2ccccc2[nH]1)N/N=C/C=C/c1ccccc1[N+](=O)[O-],3,2,3%,4.5,-5,
CC(C)CC(c1nnnn1Cc1cccs1)N1CCN(c2nc3ccccc3s2)CC1 (configuration not stated),-16,3,10%,1.1,-6,
CCOC(=O)c1cc(NC(=O)c2ccoc2C)cc(C(=O)OCC)c1,-14,5,9%,6.1,·,
CC(C)c1ccc2oc(-c3ccc(N)cc3)nc2c1,2,6,10%,1.4,49,
CCOC(=O)c1cc(-c2ccccc2)sc1NC(=O)C(C)OC(=O)c1cccnc1OCC (configuration not stated),-11,-13,0%,-3.2,-4,
O=C(Nc1cccc(C(=O)N2CCCCC2)c1)c1ccc(Cl)cc1,·,·,·,-0.2,8,
CCNc1nc(SCC(=O)Nc2ccc(Cl)c(Cl)c2)nc(N(C)C)n1,·,7,·,0.8,1,
O=C(C1CCN(c2nnc(N3CCCC3=O)s2)CC1)N1CCN(Cc2ccc3c(c2)OCO3)CC1,-7,0,-5%,·,·,
O=C1c2ccccc2C(=O)N1c1cccc(-c2csc(Nc3ccc4c(c3)OCO4)n2)c1,-18,-10,3%,·,-1,
CCn1c(SCC(=O)NC2=NCCS2)nnc1C(C)NC(=O)c1ccc(Cl)cc1 (configuration not stated),·,·,·,1.1,-6,
COc1ccc(CCn2c(=O)c3cccnc3n(Cc3ccc([N+](=O)[O-])cc3)c2=O)cc1OC,·,-3,-1%,·,·,
C=CCNC(=O)C(=O)NCC1CCCN1S(=O)(=O)c1cccs1 (configuration not stated),·,·,·,0.1,-7,
O=C(NCC1(c2ccccc2)CCCC1)c1ccccc1Br,-18,17,3%,4.3,7,
Cc1ccc(C)c(S(=O)(=O)N2CCN(C(=O)CNC(=O)c3ccc4ccccc4c3)CC2)c1,·,·,·,3.8,5,
CCN(CC)C(=O)COC(=O)c1cc(-c2ccc(OC)cc2)nc2ccccc12,-19,15,1%,7.4,27,
Cc1scc(C(=O)N2CCN(c3ccc(Cl)cc3)CC2)c1C,·,1,12%,2.3,-6,
Cn1c(=O)c2c(nc(CN3CCOCC3)n2CCCO)n(C)c1=O,-32,-3,-1%,-0.4,-4,Arbovirus anti repeat=3
COc1ccc(-c2nn(CCC#N)cc2C(=O)Nc2ccc(C(C)=O)cc2)cc1[N+](=O)[O-],·,·,·,-0.3,2,
Cc1cc(C)n(C(=O)c2ccc([N+](=O)[O-])c(Cl)c2)n1,-30,-1,-14%,11,8,

# Sorted by heavy-atom count (high to low): five of the compounds above.
SMILES,YopH inh,Arbovirus anti,Mtb growth,RecA intein inh,Mtb betalactam,others
Cc1ccc(C)c(S(=O)(=O)N2CCN(C(=O)CNC(=O)c3ccc4ccccc4c3)CC2)c1,·,·,·,3.8,5,
CCN(CC)C(=O)COC(=O)c1cc(-c2ccc(OC)cc2)nc2ccccc12,-19,15,1%,7.4,27,
Cn1c(=O)c2c(nc(CN3CCOCC3)n2CCCO)n(C)c1=O,-32,-3,-1%,-0.4,-4,Arbovirus anti repeat=3
Cc1scc(C(=O)N2CCN(c3ccc(Cl)cc3)CC2)c1C,·,1,12%,2.3,-6,
Cc1cc(C)n(C(=O)c2ccc([N+](=O)[O-])c(Cl)c2)n1,-30,-1,-14%,11,8,

# Next structures.
SMILES,YopH inh,Arbovirus anti,Mtb growth,RecA intein inh,Mtb betalactam,others
Cc1cc(F)ccc1NC(=S)NCCc1ccccc1,·,·,·,2.2,0,
Cc1ccc(NC(=O)CCC(=O)Nc2ccc(C)cc2)cc1,·,·,·,0.7,0,
CCCC(=O)Oc1ccc(C2NC(=O)c3ccccc3O2)cc1 (configuration not stated),·,·,·,-2.3,-4,
C=CCNC(=S)Nc1ccccc1,-14,-2,-5%,-2.7,3,
COc1ccc(NC(=S)N2CCN(C(=O)C3CCCO3)CC2)cc1 (configuration not stated),·,·,·,-0.6,4,
NNc1nc(-c2ccccc2)cc(-c2ccccc2O)n1,-12,-25,-1%,4.8,92,
Cc1ccc2c(c1)N(C(=O)CCC(=O)N1CCCCC1)CCO2,·,·,·,-0.6,1,
O=C(CN1CCCCCC1)Nc1ccc([N+](=O)[O-])cc1Br,·,·,·,4.8,7,
OCCN1CCOCCN(CCO)CCOCC1,-14,0,10%,·,2,
Cc1ccn2c(=O)nc(SCC(=O)NCCc3ccccc3)nc2c1,·,·,·,-1.5,-11,
CC(=O)CSc1nnc(-c2ccc(S(=O)(=O)N3CCC(C)CC3)cc2)o1,-9,·,11%,0.2,?,
Cc1cc(OCCN2CCOCC2)nc2ccccc12,-45,-1,0%,1.1,2,
O=C(CN(Cc1ccccc1Cl)C(=O)CCC(=O)Nc1nccs1)NCC1CCCO1 (configuration not stated),·,·,·,-0.7,7,
COc1cc(-c2nc3oc4ccccc4c(=O)c3c(=O)n2Cc2ccco2)cc(OC)c1OC,-45,-9,1%,3.7,-12,
Cc1ccc(CNC(=O)C2CCCN(S(=O)(=O)c3c(C)n[nH]c3C)C2)cc1 (configuration not stated),-19,0,5%,0.1,1,
CCOC(=O)c1ccc(NC(=O)CCNS(=O)(=O)c2cccs2)cc1,·,·,·,0.4,85,
Cc1cc(C(=O)CSc2nnc(-c3ccc(F)cc3)o2)c(C)n1CC1COc2ccccc2O1 (configuration not stated),23,-3,10%,·,80,
COc1ccc(NC(=O)CSc2nnc(-c3ccccn3)n2N)cc1Cl,-51,1,70%,-2.4,99,
Cc1ccc(S(=O)(=O)Nc2nc(C)c(C)s2)cc1,·,·,·,0.4,6,
c1csc(-c2nnc(-c3ccc(N4CCOCC4)cc3)o2)c1,-34,-2,-5%,-0.4,3,
Cc1c(C)c2ccc(Oc3ccc([N+](=O)[O-])cc3C(F)(F)F)c(C)c2oc1=O,-43,0,·,4.0,6,
CCc1cc(=O)oc2cc(OCC(=O)N3C[C@H]4C[C@@H](C3)c3cccc(=O)n3C4)ccc12,·,·,·,1.2,-7,
O=C(CN1CCC(n2nnc3cc(F)ccc32)CC1)NCc1ccco1,-44,-2,0%,0.9,-2,
COc1ccc(NC(=O)c2sc3nc(N4CCOCC4)c4c(c3c2N)CCCC4)c(OC)c1,·,·,·,-1.2,4,
CCc1c(C)nc2ncnn2c1N1CCC(C(=O)NCc2ccc3c(c2)OCO3)CC1,-55,1,6%,-3.2,?,
Cc1ccc(-n2cccn2)c(CN2CCCC(C(=O)c3sccc3C)C2)c1 (configuration not stated),·,7,5%,1.0,4,
CSc1ccc(CNC(=O)CCn2ccc3cc(S(=O)(=O)N4CCCC4)ccc32)cc1,·,·,·,8.6,69,
O=C(/C=C\NCC(=O)c1ccccc1)c1ccc(F)cc1,-31,5,5%,5.1,-9,
CCOc1ccc2nc(N3CCCC(C(=O)NCCCN4CC(C)CC(C)C4)C3)sc2c1 (configuration not stated),·,·,·,-1.3,0,
CCOCCn1c(SCc2ccc(C)cc2)nc2c1c(=O)[nH]c(=O)n2C,-53,12,9%,1.4,2,Arbovirus anti repeat=3
COCCNc1cc(C)nc2c(-c3ccccc3OC)c(C)nn12,-23,0,-3%,1.1,-6,Arbovirus anti repeat=-4
CN1C(=O)C(C)(C)c2cc(S(=O)(=O)N3CCN(c4ccccc4F)CC3)ccc21,·,·,·,-1.5,-12,
CCCCc1ccc(NC(=O)CSCc2cc(=O)[nH][nH]2)cc1,-31,-2,70%,64*,70,
O=C(Nc1cc(Br)ccc1O)c1cc(-c2ccco2)on1,·,·,·,0.5,7,
O=C(Nc1nc(-c2ccccc2)cs1)c1cccc(S(=O)(=O)N2CCN(Cc3ccccc3)CC2)c1,-9,5,·,-0.8,-4,
Cc1ccc(C2C(C(=O)c3cc4ccccc4o3)=C(O)C(=O)N2c2cc(C)on2)cc1 (configuration not stated),·,·,·,-3.9,45,

# Of the compounds above, these contain a CF3 group:
SMILES,YopH inh,Arbovirus anti,Mtb growth,RecA intein inh,Mtb betalactam,others
Cc1nn2c(C(F)(F)F)cc(-c3ccc(Cl)cc3)nc2c1C(=O)N1CCOCC1,-43,1,5%,-2.4,5,
Cc1c(C)c2ccc(Oc3ccc([N+](=O)[O-])cc3C(F)(F)F)c(C)c2oc1=O,-43,0,·,4.0,6,

# Continuation.
SMILES,YopH inh,Arbovirus anti,Mtb growth,RecA intein inh,Mtb betalactam,others
CC(=O)N1N=C(c2ccc(C)cc2)OC1c1ccc(C)cc1 (configuration not stated),-5,4,3%,2.7,10,
CCOCCCNC(=O)c1ccc2c(c1)ncn2-c1ccc(CC)cc1,·,·,·,-3.5,0,
Cc1onc(-c2c(Cl)cccc2Cl)c1C(=O)NC(=S)Nc1sc2c(c1C(N)=O)CCC(C)C2 (configuration not stated),-22,-2,3%,-2.1,6,
C=CCn1c(C(C)C)nc2ccccc21,·,1,3%,-8.5,-6,
Cc1ccc(C(=O)O)cc1NC(=O)Nc1cccc2ccccc12,·,·,·,-1.7,3,

# Assay outcomes (PubChem BioAssay)
